# Bioassay records (PubChem)
# ClpP mod = qHTS Assay for Activators of ClpP; ATP-dependent Clp protease proteolytic subunit (Bacillus subtilis (strain 168)), P80244; purified B. subtilis ClpP, FRET peptide cleavage, 20 min; Potency, µM (titrated, usually from 57.5 µM), for the others: at the top dose activity change, negative = active; hit rate 1.9% among 340,000; active = well fitted falling curve with a large enough effect; inconclusive = small, poorly fitted or top-dose-only effect; inactive = no such curve, though single readings can be large or run the other way; note: potency is the fitted concentration of half-maximal effect; the source files actives as falling curves though it sought activators and does not explain the sign; nearly all actives have a fitted effect of over 65% in size; many hits overshoot -100%
# Target sequence (P80244 whole entry, looked up): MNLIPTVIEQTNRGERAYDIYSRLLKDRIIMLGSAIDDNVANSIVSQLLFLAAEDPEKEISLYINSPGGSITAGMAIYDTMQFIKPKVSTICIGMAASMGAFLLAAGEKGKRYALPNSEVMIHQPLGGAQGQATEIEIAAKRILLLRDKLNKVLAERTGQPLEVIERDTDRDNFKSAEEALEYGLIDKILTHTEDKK
#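 ClpP 10 microg/mL final, pH 8 Tris/KCl buffer with BSA, glycerol, Tween-20; compound pinned in; FRET-FV substrate; RT 20 min; Ex320/Em430; ΔFRET vs ADEP 5.8 microM, DMSO, no enzyme.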
# gsp ag = agonists of gsp mutant (McCune-Albright syndrome); gsp mutant cells, cAMP HTRF, 30 min; control for the full effect not named in the record; Potency, µM (top dose mostly 76.9 µM), without a hit: at the highest dose activation (cAMP increase), hits mostly activators; hit rate 0.13% among 340,000; AID 624287; active = well fitted activation curve with a large enough effect; inconclusive = small, poorly fitted or top-dose-only effect, or another doubt; inactive = no such curve, though single readings can be large or run the other way; cell line not stated here;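 note: phosphodiesterase inhibitor Ro 20-1724 added with compounds to block cAMP breakdown; potency is the fitted concentration of half-maximal effect; nearly all actives have a fitted effect of over 60% in size; about a fifth of the inactives were tested at one dose only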
#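 Cells in DMEM/10% FBS with G418 were pretreated with compounds in DMSO plus […] (300 uM stock) for 30 min at 37C. cAMP was measured by HTRF (cAMP-d2 plus anti-cAMP antibody-K) after 30 min at room temperature.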
# Sfp inh = blocks B. subtilis Sfp PPTase activity. hit rate 3.5% among 310,000. AID 1490. Q9F4F7. Biochemical Sfp PPTase activity, qHTS. Potency, µM, without a hit: max response, negative = inhibition, usual class: inhibitors; active = well fitted inhibition curve with a large enough effect; inconclusive = small, poorly fitted or top-dose-only effect, or another doubt; inactive = no such curve, though single readings can be large or run the other way;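 note: the enzyme is Sfp with the accession as filed and its product quenches rhodamine fluorescence; potency is the fitted concentration of half-maximal effect; 0% = enzyme reaction without inhibitor and -100% = no enzyme wells; top concentration of the series not given in the record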
#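 Buffer: 50 mM Hepes-Na pH 7.6, 10 mM MgCl2, 0.01% Nonidet P-40, 0.01% BSA. Enzyme 15 nM, pre-exposed to compound 15 min; substrates then added and fluorescence change tracked over 30 min.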
# TRPV1 PAM = enhances activation of the human vanilloid receptor TRPV1; TRPV1-expressing cells, Fluo-8 calcium influx, capsaicin EC20 potentiation; host cell line not named in the record; control for the full effect not named in the record; potentiation, % at 8.33 µM; hit rate 0.02% among 320,000; active means potentiation above 80%; inconclusive means 30% to 80%; inactive means below 30%; note: 0% is about no effect
# Target sequence (Q8NER1 whole entry, looked up): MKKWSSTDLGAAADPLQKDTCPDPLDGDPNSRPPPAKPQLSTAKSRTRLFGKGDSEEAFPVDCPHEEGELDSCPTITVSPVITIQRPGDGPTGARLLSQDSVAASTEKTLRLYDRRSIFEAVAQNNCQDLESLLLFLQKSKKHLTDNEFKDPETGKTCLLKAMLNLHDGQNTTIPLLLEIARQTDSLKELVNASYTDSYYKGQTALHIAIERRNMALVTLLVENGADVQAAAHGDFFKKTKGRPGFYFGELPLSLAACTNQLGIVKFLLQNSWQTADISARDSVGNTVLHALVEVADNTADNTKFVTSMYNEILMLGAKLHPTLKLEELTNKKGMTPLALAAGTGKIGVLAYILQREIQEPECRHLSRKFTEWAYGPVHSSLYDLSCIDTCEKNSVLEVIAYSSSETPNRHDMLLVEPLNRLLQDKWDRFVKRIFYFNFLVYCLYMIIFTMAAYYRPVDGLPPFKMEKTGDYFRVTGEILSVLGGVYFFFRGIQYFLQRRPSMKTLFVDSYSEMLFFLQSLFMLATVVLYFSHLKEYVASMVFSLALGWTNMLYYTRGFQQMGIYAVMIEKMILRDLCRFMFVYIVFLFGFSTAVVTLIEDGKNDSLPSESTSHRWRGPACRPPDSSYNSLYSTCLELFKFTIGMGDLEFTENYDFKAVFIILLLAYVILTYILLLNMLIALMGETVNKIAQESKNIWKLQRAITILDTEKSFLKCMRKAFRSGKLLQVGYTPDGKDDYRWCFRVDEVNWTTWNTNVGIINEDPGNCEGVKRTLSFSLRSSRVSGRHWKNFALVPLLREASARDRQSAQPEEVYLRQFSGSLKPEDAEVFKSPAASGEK
#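 TRPV1-expressing cells were cultured overnight at 35.5C and loaded with Fluo-8 calcium dye for 40 to 90 min at room temperature. After a 10 s baseline, compound was added and calcium influx was read kinetically for 3 min (ex 480/em 520 nm).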
# gsp antag = antagonizes gsp, the McCune-Albright syndrome mutation; gsp-mutant cells, cAMP HTRF, 30 min; control for the full effect not named in the record; Potency, µM (highest dose often 76.9 µM), without a hit: at the highest dose activity change, negative = inhibition, most hits filed as inhibitors; hit rate 0.4% among 340,000; active = falling curve of any shape with a large fitted effect; inconclusive = falling curve, mostly with a smaller effect; inactive = flat or rising curve; cell line not stated here;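 note: intracellular cAMP measured with PDE inhibitor Ro 20-1724 present during compound exposure; potency is the fitted concentration of half-maximal effect; % is set by controls: 0 for no effect and ±100 for the full control effect; nearly all actives have a fitted effect of over 65% in size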
#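 G418-selected cells were plated in DMEM/10% FBS for 16-24 h at 37C, then treated with compounds plus the PDE inhibitor […] (300 uM solution added) for 30 min at 37C. Intracellular cAMP was measured by HTRF after 30 min lysis at room temperature.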
# D2 potentiator = positive allosteric modulators of human D2 dopamine receptor; P14416; AID 624464; potentiation, % (no concentration beside the values); hit rate 0.23% among 360,000; DiscoveRx D2 beta-arrestin cells, luminescence, 90 min; 100% = 57 uM dopamine signal; active = potentiation of 50% or more; inconclusive = 30% to 50%; inactive = 30% or less;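 note: compound concentration not given in the record; tested on top of an EC20 dose of dopamine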
#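 D2 cells co-treated with compound plus 50 nM dopamine (EC20) for 90 min at 37 deg C to detect potentiation. Beta-arrestin recruitment was read as enzyme-fragment luminescence after 1 h at ambient temperature. Full response was set by 57 uM dopamine.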
# Menin-MLL FL inh = menin-MLL binding inhibition, fluorescein peptide; Fluorescence polarization, fluorescein-MLL peptide displacement from menin; 290,000 tested, under 10 active; FP activity change, % at 61.4 µM; inconclusive = falling polarisation curve, or a change in total fluorescence; inactive = total fluorescence flat and polarisation flat or rising; no compound was filed as active; the % refers to the polarisation; negative = inhibition;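 note: % of control where 0% means no effect; inhibitors lower the polarisation; unlabelled MLL peptide was the positive control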
# Starred values were filed as active, the others as inactive; ? = inconclusive; . = not tested or not shown; & = joins results of further samples; [ ] = remark or other dose.
SMILES,ClpP mod,gsp ag,Sfp inh,TRPV1 PAM,gsp antag,D2 potentiator,Menin-MLL FL inh
CCOC(=O)C1CCN(S(=O)(=O)c2cccc(-c3cn4cc(Cl)ccc4n3)c2)CC1,?,-30.3%[inhibitor],-0.1%,-18.2,?,11.4,8.5
COc1ccc(CN(C(=O)c2ccc(CN3CCOCC3)o2)C(C(=O)NCC2CCCO2)c2ccc(F)cc2)cc1 (stereo not given),-0.8%,7.0%[15.4 µM],?,3.2,-6.8%,-3.9,0.7
CCC(C)Sc1ccc(-c2nc3ccc(C)cn3c2NCc2ccccc2)cc1OC (stereo not given),3.9%,.,.,29.8,?,-55.6,.
FC(F)(F)c1cccc(N2CCN(c3ccc4nnc(-c5ccccc5)n4n3)CC2)c1,-0.5%,?,?,8.7,9.3%,-8.2,6.9
Cc1cc(C)cc(NC(=O)Nc2ccc(S(=O)(=O)Nc3cc(C)on3)cc2)c1,-0.7%,?,18.9%,-3.5,10.6%,-1.3,6.8
CCC(C)NC(=O)C1CCN(S(=O)(=O)c2cccc3cccnc23)CC1 (stereo not given),-0.3%,-1.1%,8.2%,.,0.9%,-4.3,0.9
O=C(COC(=O)c1cccnc1)c1ccc(Cl)cc1,2.7%,-9.7%,-4.9%,3.7,2.4%,-24.2,5.0
COc1cc2cc(CN(CCCO)S(=O)(=O)c3ccccc3Cl)c(=O)[nH]c2cc1OC,?,-6.7%,-3.8%,10.4,-2.0%,-8.2,0.3
O=C(Cn1nnc2ccccc2c1=O)Nc1cccc(S(=O)(=O)N2CCOCC2)c1,-6.6%,?,-1.7%,3.6,-7.6%,-11.3,7.6
COCc1c(C(=O)NCC2COc3ccccc3O2)oc2ccccc12 (stereo not given),1.7%,30.7%,.,11.9,9.1%,-4.1,.
CC(C)c1cc(C(=O)Nc2cccc(C(F)(F)F)c2)no1,0.5%,9.0%,7.4%,-19.9,-7.8%,-13.7,0.9
C=CCC[C@H](Cc1ccc(F)cc1)C(=O)OC[C@H](C)NC(=O)[C@H](CC=C)CC(=O)NCCO,-0.1%,-11.2%,.,.,10.1%,-0.7,.
COc1cc(C(C(=O)NC2CCCCC2)N(C(=O)Cc2c[nH]c3ccccc23)c2ccccc2C)cc(OC)c1OC (stereo not given),-1.6%,-78.7%[inhibitor],-5.3%,-2.0,-17.1%,-11.5,5.4
COc1ccc(Cl)cc1NC(=O)CSc1nc(-c2ccccc2)cc(=O)[nH]1,-1.1%,1.5%,7.7%,?,-31.6%,-2.8,-0.1
O=C(CN1C(=O)NC2(CCc3ccccc32)C1=O)c1ccccc1 (stereo not given),0.1%,-4.0%,12.9%,0.1,6.4%,-14.0,.
CCN(Cc1ccncc1)C(=O)c1ccc2c(c1)S(=O)(=O)c1ccccc1C2=O,-4.0%,19.0%,14.9%,0.1,-12.6%,-0.3,-6.2
COc1ccc(-n2c(SCC(=O)Nc3ccc(NC(C)=O)cc3)nc3ccccc3c2=O)cc1,1.8%,?,-6.2%,19.4,-26.3%,5.9,-13.0
O=C(CCC(=O)OCC(=O)c1ccc(Cl)cc1)NC1CCCCC1,0.7%,5.1%,3.4%,5.8,-9.7%,-16.4,1.5
Cc1cc(S(=O)(=O)N2CCCCC2CCNC(=O)C(=O)NCc2cccnc2)ccc1F (stereo not given),151.7%,2.4%[15.4 µM],.,-6.0,-2.0%,-10.3,.
Cc1ccc(C(C(=O)NC(C)(C)C)N(CCCN2CCOCC2)C(=O)c2ccc(-c3ccccc3)[nH]2)o1 (stereo not given),.,-7.1%[15.4 µM],13.9%,6.2,9.2%,15.5,-0.7
CCOc1ccccc1C(=O)OCC(=O)NCCc1ccc(OC)cc1,?,15.3%,.,3.8,-12.9%,-14.2,.
CO/N=C\CC(=O)Nc1ccc(Cl)c(Cl)c1,.,-71.4%[inhibitor],8.6%,1.3,2.0%,-4.1,0.2
CCOC(=O)c1c(/N=C/C2=C(O)CC(C)(C)CC2=O)sc(C(C)=O)c1C,-3.2%,5.4%,5.6%,19.6,13.0%,-18.5,9.5
COc1cc(NC(=O)CN2C(=O)c3ccccc3Sc3ccc(C(=O)N4CCOCC4)cc32)cc(OC)c1OC,.,-6.7%[15.4 µM],?,-4.3,-2.8%,-2.6,-3.6
CCC(=O)Nc1nnc(SCCOC)s1,-2.7%,1.6%,7.1%,-18.5,10.1%,-1.7,-1.9
O=C(CS(=O)(=O)Cc1ccccc1)N1CCN(c2ccccc2F)CC1,0.8%,-27.0%,3.6%,-21.3,-1.4%,0.1,0.1
Cc1cc(NS(=O)(=O)c2ccc(NC(=O)/C=C/c3ccco3)cc2)nc(C)n1,.,3.7%[15.4 µM],-26.6%,0.4,-6.8%,-2.8,12.3
Cc1nc2ccc(NC(=O)NCCO)cc2s1,-14.2%,13.4%,2.5%,0.3,1.1%,-14.0,3.0
COc1cc(NC(=O)c2cc(C)nc3ccccc23)cc(OC)c1OC,.,-2.1%,23.0%,0.5,-2.3%,-4.0,1.1
COc1cccc(N2CCN(C(=O)c3cc4ccc(OC)cc4[nH]3)CC2)c1,1.4%,-29.7%,-23.4%,-15.1,-8.8%,3.4,-2.0
COc1ccccc1NC(=O)/C(=C\c1cccs1)NC(=O)c1ccco1,1.7%,6.7%,11.2%,10.3,-4.2%,4.7,-0.2
COc1cc(NC(=O)Cn2c([N+](=O)[O-])cnc2C)c(OC)cc1Cl,1.9%,-3.3%,29.3%,3.6,8.7%,-3.4,-1.3
COc1cc(/C=C/c2[nH]c(=O)[nH]c(=O)c2[N+](=O)[O-])cc([N+](=O)[O-])c1O,-2.2%,3.5%,-6.4%,-6.5,-14.4%,-8.7,-7.9
CCC(=O)n1nc(-c2ccc(Cl)cc2)nc1N,21.1%,-1.0%,10.1%,7.0,2.9%,-6.7,0.9
Cc1cc(/C=N/NC(N)=S)c(C)n1-c1ccc(Cl)cc1,-4.4%,7.6%,-10.3%,22.4,37.9%[activator],-7.2,12.0
CCOc1ccccc1-c1cc(-c2n[nH]c(=S)n2CC)c2ccccc2n1,-39.5%,5.2%,2.9%,-5.2,-20.4%,-10.8,-0.5
CCC1CCC2(CC1)NC(=O)N(CC(=O)Nc1cc(C)on1)C2=O (stereo not given),-1.0%,6.2%,3.8%,0.4,8.9%,3.3,0.8
Cc1cccc(NC(=O)CCCCCN2C(=O)[C@@H]3Cc4ccccc4CN3C2=O)c1,-1.0%,-6.6%,9.6%,24.6,-15.5%,-22.5,.
Cc1cccc(C2NC(c3cccc(C)c3)C(C)C(=O)C2C)c1 (stereo not given),-1.7%,1.1%,-4.7%,-3.5,-9.7%,-3.7,-0.9
CC(C)CC1Nc2ncnc(N3CCOCC3)c2N(Cc2ccc(Br)cc2)C1=O (stereo not given),-0.5%,-30.1%[inhibitor],.,15.5,3.4%,-6.3,.
Cn1c(=O)c2c(SCC(=O)NCC3CCCO3)nc(-c3ccccc3Cl)nc2n(C)c1=O (stereo not given),2.1%,?,-11.2%,-18.2,-11.0%,-5.6,-1.3
O=C(N/N=C/c1ccccc1O)C1CCCC1,-9.3%,15.9%,22.0%,-2.4,-2.1%,-11.4,.
CCN(CC)CCCn1c(=S)[nH]c2cc(OC)c(OC)cc2c1=O,-1.6%,4.3%,3.3%,-4.4,2.7%,-13.7,-0.1
COc1ccc2c(c1)c(C(=O)CN1CCN(C(=O)c3ccco3)CC1)c(C)n2C,-3.0%,-77.4%[inhibitor],13.4%,14.0,2.5%,0.0,2.8
Cc1ccc(S(=O)(=O)N(C)c2ccc3ccccc3c2)cc1,1.9%,5.4%,1.9%,-5.4,-23.9%,-7.8,0.8
Cc1ccccc1NC(=O)c1cccc(S(=O)(=O)Oc2ccc([N+](=O)[O-])cc2)c1,1.0%,4.6%,22.2%,10.9,-2.1%,-2.5,2.1
Cc1noc(C)c1C(=O)Nc1ccc(Cl)cc1C(F)(F)F,-0.4%,19.7%,-6.4%,-11.7,13.1%,-4.7,0.9
COc1ccc(CCNC(=O)C2CCN(S(C)(=O)=O)CC2)cc1,-0.7%,19.7%,11.1%,11.4,-2.9%,10.0,-1.4
NC(=O)C1C2C=CC(C2)C1c1ccccc1 (stereo not given),.,-8.2%,.,.,4.1%,6.5,.
Nc1cc(S(=O)(=O)Nc2ccc(Br)cc2)ccc1Cl,.,-2.6%[15.4 µM],6.5%,8.9,-5.2%,-0.6,2.4
O=S(=O)(c1ccc(NCCc2c[nH]c3ccccc23)nc1)N1CCOCC1,-2.7%,-13.7%,1.8%,12.8,-11.0%,11.7,-2.0
O=C(Nc1ccc([N+](=O)[O-])cn1)c1cccnc1,-2.0%,-15.5%[15.4 µM],-19.3%,-9.2,8.1%,-5.1,-2.4
CSC1CCCCC1(O)CSc1nc2ccccc2o1 (stereo not given),-1.2%,-84.2%[inhibitor],12.8%,1.6,-1.6%,2.8,2.6
Cc1ccc(C(=O)NCc2ccc3c(c2)OCO3)cc1C,-0.8%,?,3.3%,-3.2,-4.8%,-27.0,7.2
CCCN(C(=O)CSc1cc(-c2ccccc2)c2ccc(OC)cc2n1)C1CCS(=O)(=O)C1 (stereo not given),-7.8%,14.5%,-9.1%,-6.6,-15.4%,-15.4,3.5
CC(C)C(=O)N1CCc2cc(-c3csc(N)n3)ccc21,9.2%,-2.0%,39.8µM*,4.0,-11.0%,-10.5,5.0
C/C(=N\NC(=S)NCc1ccccc1)c1cccs1,.,-10.8%[15.4 µM],16.0%,-3.7,.,-28.0,1.1
COc1ccccc1CCc1nnc(CCC(=O)N(C)Cc2cccc3cnccc23)o1,.,5.3%,-10.9%,-1.3,3.5%,-11.3,1.8
Cc1nc2scc(C)n2c(=O)c1S(=O)(=O)N1CCN(c2ccccc2)CC1,.,?,7.1%,-13.2,16.8%,-0.3,1.2
COc1ccc(CNC(=O)CN(C)S(=O)(=O)c2ccc3c(c2)c(=O)n(C)c(=O)n3C)cc1,-5.5%&-16.2%,24.8%,15.4%,4.7,-6.0%,-4.4,-4.7
Cc1ccc2cc(CCNC(=O)c3ccc(S(=O)(=O)N4CCCCC4)cc3)c(=O)[nH]c2c1,.,-21.5%,-11.2%,-10.5,?,3.2,3.6
